NPYLR7 agonist: agonists of mosquito NPYLR7 receptor, primary screen, cell-based, Aedes aegypti, calcium fluorescence, mosquito biting behavior; Aedes aegypti neuropeptide Y-like receptor 7 (NPYLR7); HEK293T NPYLR7/Galpha15, GCaMP6s calcium fluorescence; activation, % at 10 µM; hit rate 0.15% among 270,000; AID 1259423, 2018; in the data active means activation above about 40%;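 further: 0% = vehicle and 100% = reference agonist at the receptor; some compounds past the cut are filed as inactive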
NPYLR7 agonist max-min: further read-out of NPYLR7 agonist, marked with its call; activation, %; measured here: Max-Min RFU normalised activation; some inactives read as strong as hits;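 span of the calcium signal over five minutes; 0% = vehicle and 100% = native peptide agonist; compound fluorescence can raise it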
An asterisk follows results filed as active; & = joins results of further samples. This is a subset (hit frequency here may not be typical).

SMILES | NPYLR7 agonist | NPYLR7 agonist max-min
CC(Nc1ccc([N+](=O)[O-])cc1S(=O)(=O)N1CCOCC1)c1ccc(F)cc1F (centres undefined) | 0 | 22
Cc1ccc(NC(=O)CN2CCCC2C(=O)N(C)C)cc1C (centres undefined) | -2 | 12
CC1CCC2(CC1)OCC(C(=O)NC1CC1)N2C(=O)c1cccs1 (centres undefined) | 25 | 26
Cc1ccc(N2CC(NC(=O)NN3CCN(C)CC3)CC2=O)cc1 (centres undefined) | 6 | 5
CC1CCCCC12NC(=O)N(CC(=O)NC1CCCC1)C2=O (centres undefined) | 6 | 12
O=C(NCc1cccc(-c2ncc(-c3ccc(F)cc3)[nH]2)c1)c1cc(F)ccc1F | 1 | -2
COc1ccc(NC(=O)Nc2ccc(Nc3ccc(-n4cccn4)nn3)cc2)cc1 | -1 | -4
CC(C)(C)C(=O)N1CCC[C@H]1C(=O)N1CCC(C(=O)N2CCOCC2)CC1 | 16 | 11
CCOC(=O)c1cc(-c2ccc(F)cc2)n(C2CCN(C(=O)c3ccccc3C(F)(F)F)CC2)n1 | 3 | 2
CCCCCCCC1(C)NC(=O)NC1=O (centres undefined) | 2 | -2
COCCNC(=O)CCC1CCN(C(=O)Nc2ccccc2SC)CC1 | 0 | -1
FC(F)(F)CN(Cc1ccccc1)C(=S)NCc1ccc2c(c1)OCO2 | 0 | -2
CC(=O)NCCn1cnc(-c2ccccc2)c1-c1nc2ccccc2n1C | 0 | -2
CCc1ccccc1CN1CCCn2cccc2C1c1cccc(C(F)(F)F)c1 (centres undefined) | 16 | 21
O=C1C(C(c2cccc(F)c2)N2CCC3(CC2)OCCO3)Sc2ncnn21 (centres undefined) | 6 | 4
CC(C)Cc1cc(C(=O)N2CCNC(=O)C2C(C)C)nc(N)n1 (centres undefined) | 14 | 7
Cn1c(-c2ccsc2)cc2c(Nc3cccc(NS(C)(=O)=O)c3)nccc21 | -8 | -12
Cc1cc(C(=O)Nc2ccc(-c3cccc(-c4ccc5c(c4)OCCO5)n3)cc2)nn1C(C)(C)C | -4 | -10
Cc1ccn2c(=O)c(NC(=O)C3CCCCC3)c(C)nc2c1 | 1 | 0
Cc1cccn(C(=O)c2nc(Cl)ccc2Cl)c1=NC1CCCCC1 | -3 | 1
CCCOC(=NCCN1CCOCC1)NC(=O)c1cccc(OC)c1 | 23 | 20
Cc1csc(Sc2ccc(NC(=O)C(C)NC(=O)c3ccco3)c(C)c2)n1 (centres undefined) | 0 | 9
Cc1ccccc1Cn1c(C)n[nH]c1=O | 11 | 6
CCOC(=O)c1c(C)nn(-c2ccc(C(=O)NCCC3=CCCCC3)cc2)c1C | -6 | -13
CCC(C)C(NC(=O)C(C)Cl)C(=O)Nc1nnc(-c2ccc(N(C)C)cc2)s1 (centres undefined) | 12 | 3
Cc1nnc(SCC(=O)N2CCc3c([nH]c4ccccc34)C2C(C)(C)C)s1 (centres undefined) | 1 | -4
O=C(Nc1nc2c(s1)CCCCCC2)c1ccc(-n2cc[nH]c2=S)cc1 | 11 | 6
Cc1ccc(S(=O)(=O)N(CCC(C)C)Cc2c(-c3ccccc3)noc2N2CCN(C)CC2)cc1 | 5 | 9
CCn1cc(NC(=O)C(=O)NCC(C)(C)c2ccc(F)cc2)cn1 | 3 | 2
O=[N+]([O-])c1cc(S(=O)(=O)C(F)(F)F)ccc1Sc1nnnn1-c1ccccc1 | 0 | 5
CCc1c(C)nc(SCC(=O)Nc2ccc(Br)cc2)c(C#N)c1C | 3 | 3
O=c1c2sccc2n(Cc2cc(=O)n3ccccc3n2)c(=O)n1-c1cc(F)ccc1F | 9 | -1
CC(NC(=O)CSc1nnc(-c2ccco2)n1C)c1ccc(F)cc1 (centres undefined) | 15 | 5
CCC(C(=O)N1CCC2(CC1)C(=O)N(CC(=O)Nc1ccc(F)cc1)CN2c1ccccc1)c1ccccc1 (centres undefined) | 28 | 29
CCOC(=O)c1c(NC(=O)c2ccc(C)cc2)sc(C(=O)Nc2ccccc2F)c1C | 11 | 6
NC(=O)c1cc2ccccc2oc1=NNC(=O)c1ccc(Cl)cc1 | 5 | 4
COCC(=O)Nc1cc(-c2cccs2)nn1-c1nc(C)cc(=O)[nH]1 | 1 | -1
Cc1cc(C)c2nc(SC(C)C#N)cc(C)c2c1 (centres undefined) | 11&3 | 10&9
CCNC(=O)C(C)NS(=O)(=O)c1ccc(F)c(C#N)c1 (centres undefined) | 2 | 1
Cc1noc(-c2ccc(OC(F)(F)F)cc2)c1C(=O)NCC1COC(C)(C)O1 (centres undefined) | 0 | 10
COc1cc(NC(=O)c2cccc3c(-c4cnn(C)c4)coc23)cc(OC)c1OC | 32 | 55
COC(=O)CCC(NC(=O)c1nn(C)c(=O)c2ccccc12)C(=O)OC (centres undefined) | 7 | 8
CCc1nc2ccc(C(=O)N(C)Cc3ccccc3)cn2c1N(C)Cc1nccs1 | -7 | -9
Cc1ccc(-c2nc(NCCNS(=O)(=O)c3ccc(C)cc3)c3ccccc3n2)cc1 | 5 | 11
COc1ccc(CNC(=O)C2CCN(c3ccc(C(F)(F)F)cc3[N+](=O)[O-])CC2)cc1 | 3 | -3
C#CCNC(=O)c1ccc2sc([C@H]3C[C@H](O)[C@@H](CO)O3)nc2c1 | 14 | 9
Cc1ccc(NC(=O)NCC2CCN(Cc3cccc(O)c3)C2)cc1 (centres undefined) | 4 | 2
COCCCNc1nc(Nc2ccc(OC)cc2)c2cnn(-c3ccccc3)c2n1 | 2 | -1
Cc1ccc(C)c(NC(=O)CCNC(=O)c2cc(C3CC3)[nH]n2)c1 | -8 | -11
CCS(=O)(=O)Nc1ccc(C2=NN(S(C)(=O)=O)C(c3ccc(C)cc3)C2)cc1 (centres undefined) | 11 | 10
O=C(NC1CCCc2occc21)c1nc(C2CC2)n(-c2ccccc2Cl)n1 (centres undefined) | 3 | 2
COc1ccccc1-c1noc(CCCC(=O)Nc2ccc(C(=O)N3CCCCC3)cc2)n1 | -3 | -5
CS(=O)(=O)CCN1CCN(Cc2ccc(Cl)cc2Br)CC1 | -8 | -10
CCOc1ccccc1NC(=O)c1c(NC(=O)c2ccccc2F)sc2c1CCCC2 | -4 | -5
CNc1nc2cnc(Nc3ccc4c(c3)OCCO4)cc2n1CC1CC1 | 9 | 1
CCOC(=O)c1[nH]c2ccccc2c1NC(=O)c1ccccc1I | 1 | 14
CCc1nn(-c2ccc(F)cc2)c(N2CCN(C(C)C)CC2)c1CN(CC(C)C)C(=O)COC | -13 | 1
COc1cc(OC)cc(OCc2ncc(-c3ccccc3)o2)c1 | -3 | -3
CCN(Cc1ccccc1)C(=O)c1ccccc1N1CCC(N)CC1 | 5 | 7
CCOC(=O)Cn1c(=O)c2c(nc3n2CCCN3c2cccc(C)c2C)n(C)c1=O | 5 | 10

(next part)
SMILES | NPYLR7 agonist | NPYLR7 agonist max-min
O=C(CN1C(=O)c2ccccc2C1=O)Nc1nc2ccccc2s1 | -7 | -12
Cc1ccc(CN2CCN(Cc3ccncc3)CC2CCO)cc1 (centres undefined) | 11 | 5
COc1cc(C(C2Sc3nc(C)nn3C2=O)N2CCc3ccccc3C2)cc(OC)c1OC (centres undefined) | 1 | -3
CSCCCNC(=S)NC1CCSc2ccccc21 (centres undefined) | -5 | -11
Cc1ccccc1Nc1nnc(C(O)c2ccccc2CN2CCOCC2)s1 (centres undefined) | 5 | 5
COc1ccc(-c2c(C#N)c(OCC(C)=O)nc3c2c(C)nn3-c2ccccc2)cc1 | 0 | 0
Fc1ccc(-n2cc(-c3ccnc(NCc4ccco4)n3)cn2)cc1 | -2 | -7
CCOc1ccccc1-n1c(-c2ccccc2)cc(C(=O)NCCCN2CCOCC2)c1C | 28 | 27
COc1c(Cl)cc(Cl)cc1CN1CC[C@@H](N)[C@@H](OC)C1 | 8 | 7
CC(c1ccccc1)n1cnnc1CCc1ccccc1 (centres undefined) | 2 | 0
N#Cc1ccc(C(=O)OCc2ccc(F)cc2Cl)cc1 | 5 | 2
NCCn1ncc2c(N3CCOCC3)ncnc21 | -4 | -5
COc1cccc(-c2nc3ccccn3c2NCc2ccccc2)c1 | -2 | 4
CC(=O)C(C)n1c(=O)c2c(nc3n(-c4ccc(F)cc4)c(C)c(C)n23)n(C)c1=O (centres undefined) | 10 | 5
O=[N+]([O-])c1ccc(N2N=C(c3ccccc3)CC2c2ccc(F)cc2)cc1 (centres undefined) | 1 | -4
CCc1ccccc1N(CC(=O)N/N=C\c1sccc1C)S(=O)(=O)c1ccccc1 | 5 | 6
CCC(C)n1c(C)c(C)n2c3c(=O)n(CC(C)=O)c(=O)n(C)c3nc12 (centres undefined) | -9 | -13
COCCN(Cc1cnn(C)c1)C(=O)c1cccc(C(F)(F)F)c1 | 16 | 14
COCCN(CC(=O)N(Cc1cccn1Cc1ccccc1Cl)C1CCCCC1)C(=O)c1cccc(C(F)(F)F)c1 | -2 | 5
Cc1ccc(NC(=O)CC(=O)N(C)Cc2sccc2C)cc1 | 4 | 4
O=C(C1CCCC1)N1CCN(c2nc(-c3cccs3)nc3cc(Cl)ccc23)CC1 | 3 | 11
O=C(NCC1CCCN(Cc2cnn(-c3ccccc3Cl)c2)C1)c1cccs1 (centres undefined) | 11&16 | 3&1
CCNC(=O)N1CCN(c2cc(Oc3ccc(F)cc3C)ncn2)CC1C (centres undefined) | -10 | -5
Nc1nc(N)c2nc(-c3cccc(O)c3)c(-c3cccc(O)c3)nc2n1 | -10 | -16
O=C(CC1CCCCN1S(=O)(=O)c1ccccc1)Nc1ncccn1 (centres undefined) | 9 | 6
CC(C)(C)c1nnc2sc(SCC(=O)c3ccc4c(c3)NC(=O)CO4)nn2c1=O | 5 | 5
CC(C)COc1cncc(NCC(C)CCO)n1 (centres undefined) | -1 | -7
Cc1cc(C)c(S(=O)(=O)N2CCN(C(=O)c3ccc(-c4ccc([N+](=O)[O-])cc4)o3)CC2)c(C)c1 | -5 | -7
O=C(CCN1CCCCO1)NCCc1nc2ccc(Cl)cc2[nH]1 | 0 | -8
CC1CCCCN1CCCNC(=O)C(C1CCCC1)N1CCN(C(=O)c2ccc(C(C)(C)C)cc2)CC1 (centres undefined) | -5 | -2

Overlap with the part before: 2 entries, then new ones.
SMILES | NPYLR7 agonist | NPYLR7 agonist max-min
O=C(CCN1CCCCO1)NCCc1nc2ccc(Cl)cc2[nH]1 | 0 | -8
CC1CCCCN1CCCNC(=O)C(C1CCCC1)N1CCN(C(=O)c2ccc(C(C)(C)C)cc2)CC1 (centres undefined) | -5 | -2
CCc1ccc(-c2cc3c(=O)n(Cc4nc(-c5ccc(OC)cc5)no4)ccn3n2)cc1 | 1 | -3
O=C(COC(=O)C=Cc1cccs1)NC(=O)NC1CCCC1 | 3 | 5
Cc1c(N)cccc1-c1nc2ccc(F)cc2n1C1CC1 | 4 | 3
Cc1ccc(NC(=O)Nc2ccc(N3CCc4ccccc4C3)c(C(=O)NCC3CCCO3)c2)c(C)c1 (centres undefined) | 1 | -6
C=CCN(C(=O)c1cc(-c2ccc(C)s2)[nH]n1)C1CCS(=O)(=O)C1 (centres undefined) | 12 | 5
O=S1(=O)Cc2cc(Br)cc(Br)c2O1 | 3 | -1
O=C(NC1CCCCC1)c1cc(-c2ccc(F)cc2)nn1-c1cccc(Cl)c1 | -3 | 0
O=C(CSc1nc2ccccc2s1)n1c2ccccc2c2ccccc21 | 3 | 14
CCN(CC)C(=O)Oc1ccc2c(ccn2Cc2cccc(F)c2)c1NC(=O)COCCOC | -2 | -7
Cc1c(Cl)cccc1NC(=O)CSc1nc(=O)n(Cc2ccncc2)c2c1CCC2 | 2 | 0
CCn1c(SCC(=O)N/N=C\c2ccc(OC)c(OC)c2OC)nc2ccccc21 | 1 | 5
COc1ccc(CCOC(=O)[C@@H]2CCCN2C(=O)CCCCCNC(=O)OC(C)(C)C)cc1OC | -7 | -13
CCn1c(C)cc(O)c(C(c2cccc(F)c2)N2CCN(C)CC2)c1=O (centres undefined) | 12 | 7
COc1ccc(N(C)S(=O)(=O)c2ccc(OC)c(N3CCN(C(=O)c4cc(C)on4)CC3)c2)cc1 | 18 | 8
Cc1ccc2cc(CCNC(=O)CC(C)C)c(=O)[nH]c2c1 | 3 | 22
Cn1c(N)c(N2CCCCC2)c(=O)n(CC(=O)NC(c2ccccc2)c2ccccc2)c1=O | 2 | 1
CC1(C(=O)NS(=O)(=O)c2ccccc2Cl)CCN1C(=O)Cc1ccc(-c2ccccc2)cc1 (centres undefined) | 1 | -1
COc1ccc(CC(=O)NNc2ncc(C(F)(F)F)cc2Cl)cc1OC | 0 | -7
Cc1ccc2nc(-c3ccc(Cl)c(Cl)c3)c(NC(C)(C)C)n2c1 | 10&1 | 10&6

Reformatted: entries from further up.
| Molecule | NPYLR7 agonist | NPYLR7 agonist max-min |
| --- | --- | --- |
| CCn1c(C)cc(O)c(C(c2cccc(F)c2)N2CCN(C)CC2)c1=O (centres undefined) | 12 | 7 |
| COc1ccc(N(C)S(=O)(=O)c2ccc(OC)c(N3CCN(C(=O)c4cc(C)on4)CC3)c2)cc1 | 18 | 8 |
| Cc1ccc2cc(CCNC(=O)CC(C)C)c(=O)[nH]c2c1 | 3 | 22 |
| Cn1c(N)c(N2CCCCC2)c(=O)n(CC(=O)NC(c2ccccc2)c2ccccc2)c1=O | 2 | 1 |
| CC1(C(=O)NS(=O)(=O)c2ccccc2Cl)CCN1C(=O)Cc1ccc(-c2ccccc2)cc1 (centres undefined) | 1 | -1 |
| COc1ccc(CC(=O)NNc2ncc(C(F)(F)F)cc2Cl)cc1OC | 0 | -7 |
| Cc1ccc2nc(-c3ccc(Cl)c(Cl)c3)c(NC(C)(C)C)n2c1 | 10&1 | 10&6 |
